# Bioassay records deposited in PubChem BioAssay by National Center for Advancing Translational Sciences (NCATS).
# Vaccinia Venus: inhibitors of vaccinia virus (Venus reporter). Potency, µM (top dose mostly 36.5 µM), for inactives: at the highest dose activity change, negative = inhibition, most hits filed as inhibitors. AID 720580. Vaccinia virus Venus reporter expression, fluorescence. hit rate 0.46% among 330,000; active means well fitted inhibition curve with a large enough effect; inconclusive means small, poorly fitted or top-dose-only effect; inactive means no such curve, though single readings can be large or run the other way; tested in A549 cells; also: nearly all actives have a fitted effect of over 30% in size; inactives centre near -10
# Vaccinia mCherry: vaccinia inhibition (mCherry reporter); Potency, µM (top dose mostly 36.5 µM), inactives show at the highest dose activity change, negative = inhibition, actives largely listed as inhibitors; AID 720579; hit rate 0.63% among 310,000; Vaccinia virus mCherry reporter infection, fluorescence; about a quarter of the inactives have no number; active = well fitted inhibition curve with a large enough effect; inconclusive = small, poorly fitted or top-dose-only effect; inactive = no such curve, though single readings can be large or run the other way; tested in A549 cells; also: nearly all actives have a fitted effect of over 35% in size; inactives centre near -10
# * = called active by the depositor; i = inactive; ? = inconclusive; / = no result given; & = joins results of further samples; [ ] = dose if it differs, or a comment. % is scaled to controls: 0 for no effect and ±100 for the full control effect; potency is read from the fitted curve at half-maximal effect.
SMILES,Vaccinia Venus,Vaccinia mCherry
COC(=O)C1=C(c2ccc3ccccc3c2)C[C@@H]2CC[C@H]1N2C(=O)N1CCC(C)CC1,-22%,-16%
Cc1cccc2cc(-c3nc4ccc(C(=O)O)cc4[nH]3)c(=O)oc12,-9%,i
CNC(=O)c1ccc(CN(C)C(=O)/C=C/c2ccc(S(=O)(=O)N3CCCCCC3)cc2)cc1,-27%,-12%
N#CCC(=O)Nc1ccc(C(=O)NCc2cccc(Cl)c2)cc1,8%[7.34 µM],-14%[7.34 µM]
COc1cccc(NC(=O)c2sc3nc(C)c(C(=O)Nc4ccc(C)cc4C)c(-c4cccs4)c3c2N)c1,-14%[7.34 µM],-13%[7.34 µM]
Cc1ccc(OC(=O)CSc2nnc(-c3cccs3)o2)cc1C,-2%,-4%
COc1ccc2cc(CN(CC3CCCO3)C(=S)NCc3ccco3)c(=O)[nH]c2c1 (configuration not stated),-2%,-4%
NC(=O)[C@@H]1CCCCNc2c(I)cc([N+](=O)[O-])cc2C(=O)N[C@@H](CCC(=O)O)C(=O)N[C@@H](CO)C(=O)N1,-12%,i
O=C(CCNS(=O)(=O)c1cccs1)NCc1cccs1,?,-13%
C=CC1=C(C(=O)O)N2C(=O)[C@@H](NC(=O)/C(=N\OCC(=O)O)c3csc(N)n3)[C@H]2SC1,-13%,i
Cc1cccc(NC(=O)CN2C(=O)N/C(=C\c3cccn3-c3cccc(C(=O)O)c3)C2=O)c1,-14%,-11%
O=c1c2ccccc2nc(/C=C/c2ccccc2F)n1-c1cccc(O)c1,-2%,-11%
Cc1cc(C)n(-c2ccc(C(=O)NCCCN3CCOCC3)cc2)n1,3%,i
Cn1c(=O)oc2cc(S(=O)(=O)CCC(=O)NCCc3ccccc3)ccc21,-1%&7%,-15%&4%
O=C(Nc1ccc2oc(-c3ccccc3)nc2c1)c1ccccc1F,-12%,-15%
COc1ccc(Br)c(C(=O)NC(C)(C)CO)c1,-23%,-15%
O=C(NCc1ccc(F)cc1)c1cnc(N2CCCCC2)c2ccccc12,-24%,-18%
CN1CCCN(C(=O)COc2cccc(C(F)(F)F)c2)CC1,-6%,-16%
COC(=O)C1=NN(c2ccccc2)C2C(=O)N(c3ccccc3OC)C(=O)C12 (configuration not stated),-7%,-12%
Cc1nc2sc3c(c2c(=N)n1N)CC(C)(C)OC3,-9%,?
Cc1ccccc1N1CC(C(=O)N2CC(C)OC(C)C2)CC1=O (configuration not stated),-4%,-23%
CCC(C(=O)NCc1cccc(Br)c1)n1nc(C)c2c(C)n(-c3ccccc3)nc2c1=O (configuration not stated),-14%,-21%
Cc1nn(CC(C)C(=O)N2CCN(S(=O)(=O)c3ccc(Cl)cc3)CC2)c(C)c1C (configuration not stated),-15%,-8%
COc1ccc(/C=C(\NC(=O)c2ccc(Cl)cc2)C(=O)NCCCn2ccnc2)cc1OC,-4%,-21%

# Arranged by SMILES length (low to high): some entries from above
SMILES,Vaccinia Venus,Vaccinia mCherry
Cc1nc2sc3c(c2c(=N)n1N)CC(C)(C)OC3,-9%,?
CN1CCCN(C(=O)COc2cccc(C(F)(F)F)c2)CC1,-6%,-16%
Cn1c(=O)oc2cc(S(=O)(=O)CCC(=O)NCCc3ccccc3)ccc21,-1%&7%,-15%&4%

# Later entries
SMILES,Vaccinia Venus,Vaccinia mCherry
CC1CCCCN1C(=O)CSc1nnc2c(n1)[nH]c1ccc(F)cc12 (configuration not stated),-11%,-10%
COc1ccc(C)cc1NC(=O)c1cc(S(=O)(=O)N2CCCC2)cn1C,-2%,12%
Cc1cc(NC(=O)C2CC2)n(-c2nc3ccccc3s2)n1,-4%,-13%
Cc1cc(NC(=O)COc2ccc(C)c(C)c2)no1,-12%,-8%
O=C(NNc1nc2cc3c(cc2s1)OCO3)c1cccc(F)c1,-15%,-21%
O=C(O)CC(NC(=O)c1ccco1)c1ccco1 (configuration not stated),2%,i
Cc1noc(C)c1N=Nc1ccccc1C(=O)O,-21%,i
COc1cc(NC(=O)c2ccc3snnc3c2)cc(OC)c1,-1%,i
COc1ccc(S(N)(=O)=O)cc1N(C)S(=O)(=O)c1ccccc1,-5%,-4%
CCOC(=O)Nc1ccc2nc(-c3cscn3)[nH]c2c1,?,-2%
CCOC(=O)C1(C)CCN1C(=O)c1ccc(C(=O)OC)cc1 (configuration not stated),-11%,0%
COc1ccc(C)cc1S(=O)(=O)N1CCN(C(=O)c2ncoc2-c2ccccc2C)CC1,0%,-17%
Cc1ccc(-c2csc3ncnc(SCc4ccc(C(=O)O)cc4)c23)cc1,0%,i
CC(C)S(=O)(=O)c1csc(C(=O)NN)c1Cl,-16%,-19%
N=C1c2ccccc2CN1NC(=O)c1ccccc1,-15%,-29%
CCC(=O)Nc1sc2c(c1C(N)=O)CCN(C(C)=O)C2,-8%,-23%
O=C(c1ccc(N2CCCS2(=O)=O)cc1)N1CCN(c2ccc(F)cc2)CC1,-10%,?
O=C(NC(=S)Nc1ccc(CN2CCCCC2)cc1)c1ccco1,4%,i
CCN(CC)S(=O)(=O)c1cccc(C(=O)c2c(C)cc3ccccn23)c1,-20%,-2%
O=C(O)c1ccc(/C=N/Nc2cccc(C(F)(F)F)c2)cc1,-5%,-7%
Cc1cc(OCC(=O)O/N=C(\N)c2ccccc2)ccc1Br,-14%,i
CCCN1Cc2cccc(C(=O)N3CCN(c4cc(Cl)ccc4C)CC3)c2C1=O,-23%,-1%
COc1ccc(CCN(C)C(=O)CSc2nc3ccccc3c(=O)n2CC2CCCO2)cc1OC (configuration not stated),-19%,i
COCCn1nnnc1C(c1ccccc1OC)N1CCN(c2ccccc2)CC1 (configuration not stated),1%,/
CC(=O)Nc1ccc(-c2ccnc3c2CC(C(=O)Nc2cccnc2)O3)cc1 (configuration not stated),-10%,3%
O=c1c(C=Nc2ccc(Oc3ccccc3)cc2)c[nH]n1-c1cccc(Cl)n1,-9%,-8%
C=Cc1ccc(Cn2c(C)c(CNCCc3ccccc3C)c(C(=O)O)c2C)cc1,9%,10%
O=c1cc(-c2cccc3ccccc23)[nH][nH]1,-21%,/
N#C/C(=C\c1ccc(-c2cccc(Cl)c2)o1)C(=O)Nc1cccc2cccnc12,-3%,-2%
CCOc1ccc(S(=O)(=O)N2CCN(C(=O)Cc3n[nH]c(=O)c4ccccc34)CC2)cc1,-23%,-29%
O=C(N/N=C/c1c(O)n(Cc2ccco2)c(=O)[nH]c1=O)c1ccccc1O,-2%,0%
O=C(CN1C(=O)NC(c2ccccc2)(c2ccccc2)C1=O)NCC(=O)Nc1ccc(F)cc1,-21%,i
CCC1CCCCN1CC(=O)c1c(C)[nH]c2ccc(OC)cc12 (configuration not stated),-12%,-12%
COc1ccc(-c2cc(CCC(=O)N3CCN(c4cc(C)ccc4C)CC3)[nH]n2)cc1,-29%,-25%
Cc1noc(C)c1S(=O)(=O)NCC(=O)O,0%,i
COc1ccc(C(=O)N2c3ccccc3C=CC2C#N)cc1 (configuration not stated),2%,-2%
CCN1CCN(c2nc(Nc3cccc(F)c3)nc(N)c2[N+](=O)[O-])CC1,?,?
O=C(COc1ccc2c3c(c(=O)oc2c1)CCCC3)N[C@@H](Cc1ccccc1)C(=O)O,-1%,1%
Cc1cc(N2CCN(c3ccccc3)CC2)n2cnnc2n1,-17%,-10%
COc1cccc(NC(=O)Cn2c(=O)n(Cc3ccc(C(=O)NCc4ccc(C)cc4)cc3)c(=O)c3ccccc32)c1,1%,-2%
CCOc1ccccc1NC(=O)c1cc(=O)c2ccc(C)cc2o1,-16%,-9%
CCCNC(=O)C1(C)CCCN(C(=O)c2cc(C)n(C(C)(C)C)n2)C1 (configuration not stated),-2%,9%
Clc1ccc(-c2c[n+](Cc3ccc(Br)cc3)c3n2CCCCC3)cc1,-8%,-14%
CCn1c(CNc2cccc(Cl)c2)nnc1SCC(=O)OC1CCCCC1,-13%,-18%
O=C(Nc1ccnn1C1CCN(Cc2cccc(OCCO)c2)CC1)C1CCOC1 (configuration not stated),-12%,i
COc1ccc(C2=C(C)C(=O)N(Cc3ccc(C(=O)NCc4ccc(C)cc4)cc3)S2(=O)=O)cc1,-7%,-10%
O=C(COc1ccc(Cl)cc1Cl)NCc1ccncc1,-5%,-15%
Oc1c(Br)cccc1/C=N/c1ncn[nH]1,-19%,i
COc1ccccc1-c1n[nH]nc1C1=CC(=O)CC(C)(C)C1,-1%,i
O=C(c1ccc(F)cc1Cl)N1CCN(S(=O)(=O)c2cccs2)CC1,-14%,-18%
COc1cc2c(cc1OC)C(c1cc(OC)c(OC)c(OC)c1)C1(O)C(=O)OCC1(O)C2 (configuration not stated),-5%,i
O=C(NCc1ccco1)c1ccc(Cl)c(S(=O)(=O)Nc2ccccc2)c1,-3%,i
Cc1nn(C)c(Cl)c1S(=O)(=O)N(Cc1ccco1)c1ncnc2nc[nH]c12,-17%,-1%
N#CCSc1nc2c(cc1C#N)CCCC2,-12%,2%
CCCc1cc(C(=O)NNC(=S)Nc2cccc(C)c2)cs1,-5%,i
Cc1ccc(SCC(=O)Nc2ccccc2C(=O)N2CCOCC2)cc1,-4%,i
O=C(NC1CCCc2ccccc21)c1c(F)cccc1Cl (configuration not stated),0%,0%
CCc1ccc(C2c3c(n[nH]c3C)C(=O)N2c2ccc(C)cc2)cc1 (configuration not stated),-4%,-14%
CC1=C(C#N)C(=O)OC(C)(C)C1,23%,/
NC(=O)c1ccsc1NC(=O)Cc1ccc([N+](=O)[O-])cc1,-18%,?

# The listing continues.
SMILES,Vaccinia Venus,Vaccinia mCherry
COc1ccc(C(=O)NCC(=O)N2CCN(c3ncccn3)CC2)cc1OC,-6%,i
CCCCCCCCC(c1nc2ccccc2[nH]1)N1CCN=C(c2ccccc2)C1=O (configuration not stated),0%,9%
CCN(CC)CCn1c(SCC(=O)Nc2cccc(OC)c2)nc2c(sc3ccccc32)c1=O,-10%,-17%
O=c1oc2ccccc2c(O)c1C(c1ccc([N+](=O)[O-])cc1)c1c(O)c2ccccc2oc1=O,-29%,-21%
COc1cccc(NC(=O)c2ccc(-n3cnnn3)cc2)c1,3%,29%
COc1ccc(-c2cc(OC(=O)c3cccc(Cl)c3)c3c(C)oc(C)c3c(=O)c2)cc1OC,8%,-6%
O=C1C=CC(c2ccccc2)(c2ccccc2)CC1,-2%,i
COc1ccc(-c2cc(C(F)F)n3ncc(C(=O)Nc4cc(C)on4)c3n2)cc1,-5%,i
CC(C)(C)C1CCc2onc(C(=O)Nc3ccc4c(c3)OCO4)c2C1 (configuration not stated),-16%,-15%
CC(C)(C)NC(=O)C(c1ccc(F)cc1)N(CC1CCCO1)C(=O)c1csnn1 (configuration not stated),-6%,i
Nc1ncnc2c1ncn2COC(CO)CO,3%,0%
CSc1ncc(Cl)c(C(=O)Nc2c(C(=O)c3ccc(C)cc3)oc3ccccc23)n1,0%,-8%

# 15 compounds from above, arranged by molar mass, descending.
SMILES,Vaccinia Venus,Vaccinia mCherry
CCN(CC)CCn1c(SCC(=O)Nc2cccc(OC)c2)nc2c(sc3ccccc32)c1=O,-10%,-17%
CSc1ncc(Cl)c(C(=O)Nc2c(C(=O)c3ccc(C)cc3)oc3ccccc23)n1,0%,-8%
CC(C)(C)NC(=O)C(c1ccc(F)cc1)N(CC1CCCO1)C(=O)c1csnn1 (configuration not stated),-6%,i
CCCCCCCCC(c1nc2ccccc2[nH]1)N1CCN=C(c2ccccc2)C1=O (configuration not stated),0%,9%
COc1ccc(C(=O)NCC(=O)N2CCN(c3ncccn3)CC2)cc1OC,-6%,i
Cc1ccc(SCC(=O)Nc2ccccc2C(=O)N2CCOCC2)cc1,-4%,i
CC(C)(C)C1CCc2onc(C(=O)Nc3ccc4c(c3)OCO4)c2C1 (configuration not stated),-16%,-15%
CCCc1cc(C(=O)NNC(=S)Nc2cccc(C)c2)cs1,-5%,i
CCc1ccc(C2c3c(n[nH]c3C)C(=O)N2c2ccc(C)cc2)cc1 (configuration not stated),-4%,-14%
NC(=O)c1ccsc1NC(=O)Cc1ccc([N+](=O)[O-])cc1,-18%,?
O=C(NC1CCCc2ccccc21)c1c(F)cccc1Cl (configuration not stated),0%,0%
COc1cccc(NC(=O)c2ccc(-n3cnnn3)cc2)c1,3%,29%
O=C1C=CC(c2ccccc2)(c2ccccc2)CC1,-2%,i
Nc1ncnc2c1ncn2COC(CO)CO,3%,0%
CC1=C(C#N)C(=O)OC(C)(C)C1,23%,/

# (further entries)
SMILES,Vaccinia Venus,Vaccinia mCherry
CC(=O)N1N=C(N)SC1(C)C,-1%,-4%
Cc1ccc(NC(=S)N/N=C/c2ccc([N+](=O)[O-])s2)cc1,?,10µM*
O=C(CSc1ccc(Cl)cc1)N1CCN(c2ccc([N+](=O)[O-])cc2Cl)CC1,-22%,-2%
CC1(C(=O)N(c2ccccc2)C(C(=O)NC2CCCC2)c2ccccn2)CC(=O)N=C2C=CC=CN21 (configuration not stated),-7%,-13%
O=C(COc1cccc(Cl)c1)Nc1ccccc1N1CCCCC1,4%,-8%
CCOc1ccc(NC(=O)CN(C)C(=O)CCCc2c[nH]c3ccccc23)cc1OCC,-18%,?
COc1ccc(COC(=O)c2ccc(Cl)c(S(=O)(=O)N3CCOCC3)c2)cc1F,-9%,i
Cc1csc(=O)n1CCC(=O)OCC(=O)c1c(N)n(CC(C)C)c(=O)n(C)c1=O,-23%,-7%
COc1ccc(-c2coc3c(C(=O)NCc4ccccc4)cccc23)c(C)c1,-7%,5%
Cc1ccc(C(=O)/C=C/c2c(C)nn(-c3ccccc3)c2Cl)cc1,-15%,-9%
